Screening results from PubChem BioAssay.
gsp antagonist: antagonizes gsp, the McCune-Albright syndrome mutation. gsp-mutant cells, cAMP HTRF, 30 min; control for the full effect not named in the record. Potency, µM (highest dose often 76.9 µM), for inactives: at the highest dose activity change, negative = inhibition, hits mostly inhibitors. 0.4% of 340,000 active; active = falling curve of any shape with a large fitted effect; inconclusive = falling curve, mostly with a smaller effect; inactive = flat or rising curve; cell line not stated here;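 further: intracellular cAMP measured with PDE inhibitor Ro 20-1724 present during compound exposure; potency means the concentration at half of the fitted maximal effect; on the % scale 0 is the no-effect control and ±100 the full control effect; nearly all actives have a fitted effect of over 65% in size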
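HTRF cAMP measurement after 30 min RT detection following 30 min, 37C compound treatment alongside […] (added as 300 uM solution) in G418-selected cells seeded at 2000/well and grown 16–24 h.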
Sfp inh: Sfp phosphopantetheinyl transferase inhibition | Biochemical Sfp PPTase activity, qHTS | 3.5% of 310,000 active | Potency, µM, for inactives: max response, negative = inhibition, hits mostly inhibitors; active means well fitted inhibition curve with a large enough effect; inconclusive means small, poorly fitted or top-dose-only effect, or another doubt; inactive means no such curve, though single readings can be large or run the other way;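 further: the enzyme is Sfp with the accession as filed and its product quenches rhodamine fluorescence; potency means the concentration at half of the fitted maximal effect; 0% = enzyme reaction without inhibitor and -100% = no enzyme wells; top concentration of the series not given in the record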
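Compounds were incubated with enzyme (final 15 nM) for 15 min at room temperature before substrate addition started the reaction. Fluorescence at 525 nm excitation, 598 nm emission was recorded immediately and after 30 minutes.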
TRPV1 PAM: potentiators of human vanilloid receptor 1 (TRPV1) | Q8NER1 | TRPV1-expressing cells, Fluo-8 calcium influx, capsaicin EC20 potentiation; host cell line not named in the record; control for the full effect not named in the record | potentiation, % at 8.33 µM | 0.02% of 320,000 active | AID 540277; active means potentiation above 80%; inconclusive means 30% to 80%; inactive means below 30%; further: 0% is about no effect
Target sequence (Q8NER1 whole entry, looked up): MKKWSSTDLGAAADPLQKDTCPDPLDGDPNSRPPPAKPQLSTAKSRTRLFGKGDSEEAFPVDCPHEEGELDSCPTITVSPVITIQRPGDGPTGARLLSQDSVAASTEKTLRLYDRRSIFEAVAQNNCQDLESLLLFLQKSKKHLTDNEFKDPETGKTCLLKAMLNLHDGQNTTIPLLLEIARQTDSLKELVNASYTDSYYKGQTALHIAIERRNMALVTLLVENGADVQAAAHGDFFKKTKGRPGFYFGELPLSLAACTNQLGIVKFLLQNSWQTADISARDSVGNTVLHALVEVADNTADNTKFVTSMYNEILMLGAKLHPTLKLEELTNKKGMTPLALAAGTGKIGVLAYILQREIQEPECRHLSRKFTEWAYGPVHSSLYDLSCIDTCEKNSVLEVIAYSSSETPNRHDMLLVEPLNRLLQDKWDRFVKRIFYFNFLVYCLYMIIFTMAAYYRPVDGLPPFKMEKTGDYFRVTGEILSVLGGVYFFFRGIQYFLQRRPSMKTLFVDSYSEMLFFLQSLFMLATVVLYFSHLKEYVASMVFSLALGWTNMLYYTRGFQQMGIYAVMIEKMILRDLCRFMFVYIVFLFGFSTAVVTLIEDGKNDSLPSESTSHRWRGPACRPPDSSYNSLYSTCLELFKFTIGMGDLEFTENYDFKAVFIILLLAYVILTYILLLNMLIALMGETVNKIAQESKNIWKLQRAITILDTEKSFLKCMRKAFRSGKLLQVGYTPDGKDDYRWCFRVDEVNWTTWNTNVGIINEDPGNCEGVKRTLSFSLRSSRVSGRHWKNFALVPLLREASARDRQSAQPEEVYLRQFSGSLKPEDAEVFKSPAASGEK
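Fluo-8 calcium influx in TRPV1-expressing cells, kinetic read (ex 480/em 520 nm). Compound added and read 3 min for agonist activity, followed by capsaicin at EC20 final and 2 min further read for enhancement.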
Menin MLL FP FL: inhibitors of human menin-MLL interaction, wild-type MLL peptide | Fluorescence polarization, fluorescein-MLL peptide displacement from menin | FP activity change, % at 61.4 µM | 290,000 tested, under 10 active | AID 1766; inconclusive = falling polarisation curve, or a change in total fluorescence; inactive = total fluorescence flat and polarisation flat or rising; no compound was filed as active; the % refers to the polarisation; negative = inhibition;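 further: % of control where 0% means no effect; inhibitors lower the polarisation; unlabelled MLL peptide was the positive control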
CtBP-E1A inh: CtBP/E1A binding inhibition. 0.49% of 340,000 active. activity change, % (concentration not given with the values). AlphaScreen GST-E1A/His-CtBP binding, 1536-well; stronger effect = lower value; control for the full effect not named in the record; in the data active means activity change below about -65%; inconclusive means about -30% to -65%; inactive means above about -30%; further: on the % scale 0 is the no-effect control and ±100 the full control effect
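AlphaScreen with 125 nM GST-E1A and 125 nM His-CtBP (5X stocks) in Tris pH 8.0, 300 mM NaCl, BSA, Tween 20, TCEP. Compounds preincubated 2 h at 37 deg C, then glutathione donor/nickel acceptor beads added for 1 h at 37 deg C in dark.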
gsp agonist: agonists of gsp mutant (McCune-Albright syndrome). gsp mutant cells, cAMP HTRF, 30 min; control for the full effect not named in the record. Potency, µM (titrated, usually from 76.9 µM), inactives show at the top dose activation (cAMP increase), usual class: activators. 0.13% of 340,000 active; active = well fitted activation curve with a large enough effect; inconclusive = small, poorly fitted or top-dose-only effect, or another doubt; inactive = no such curve, though single readings can be large or run the other way; cell line not stated here;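 further: phosphodiesterase inhibitor Ro 20-1724 added with compounds to block cAMP breakdown; potency means the concentration at half of the fitted maximal effect; nearly all actives have a fitted effect of over 60% in size; about a fifth of the inactives were tested at one dose only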
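Cells in DMEM/10% FBS with G418 were pretreated with compounds in DMSO plus […] (300 uM stock) for 30 min at 37C. cAMP was measured by HTRF (cAMP-d2 plus anti-cAMP antibody-K) after 30 min at room temperature.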
ClpP mod: qHTS Assay for Activators of ClpP; Potency, µM (doses to about 57.5 µM), inactives show top-dose activity change, negative = active; purified B. subtilis ClpP, FRET peptide cleavage, 20 min; 1.9% of 340,000 active; active = well fitted falling curve with a large enough effect; inconclusive = small, poorly fitted or top-dose-only effect; inactive = no such curve, though single readings can be large or run the other way; further: potency means the concentration at half of the fitted maximal effect; the source files actives as falling curves though it sought activators and does not explain the sign; nearly all actives have a fitted effect of over 65% in size; many hits overshoot -100%
Target sequence (P80244 whole entry, looked up): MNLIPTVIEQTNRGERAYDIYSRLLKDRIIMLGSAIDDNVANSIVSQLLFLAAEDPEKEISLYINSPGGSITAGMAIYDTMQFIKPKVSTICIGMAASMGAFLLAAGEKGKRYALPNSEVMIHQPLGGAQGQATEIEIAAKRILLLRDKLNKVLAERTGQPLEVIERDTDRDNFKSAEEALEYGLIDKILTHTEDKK
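Purified B. subtilis ClpP, 10 microg/mL final in Tris/HCl pH8 with KCl, BSA, glycerol and Tween-20, cleaved an Abz/nitrotyrosine-quenched decapeptide. Fluorescence (ex 320, em 430) was read at 0 and 20 min at room temperature. Delta was normalized to 5.8 microM ADEP and DMSO/no-enzyme controls.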
An asterisk follows results filed as active; ? = inconclusive; / = not tested or not shown; [ ] = another dose, or the depositor's remark. Compounds were not picked by outcome. About 5.3% of those tested had a hit in this group.

smiles	gsp agonist	Menin MLL FP FL	CtBP-E1A inh	Sfp inh	gsp antagonist	ClpP mod	TRPV1 PAM
O=C(CCNS(=O)(=O)c1ccccc1)NNC(=O)COc1ccc(Cl)cc1	-1%	/	/	/	2%	2.0%	1
CCCN(CCC)C(=O)NC1CC(=O)N(c2ccc(OC)cc2)C1 (configuration not stated)	7%	2.9	7	20%	11%	0.6%	4
O=C(NC1CCCC1)C(c1ccc(F)cc1)N(Cc1ccc(Cl)cc1)C(=O)CCl (configuration not stated)	17%	0.6	-3	13%	-5%	1.7%	7
Cc1ccc(N(C)S(=O)(=O)c2csc(C(N)=O)c2)cc1C	?	1.0	5	12%	-6%	-0.4%	?
Cc1ccc(-n2nc(C)c3c2OC(N)=C(C#N)C3c2ccco2)cc1 (configuration not stated)	-4%	14	-23	-16%	-5%	-1.6%	-5
COCCN(C(=O)CSc1nncn1-c1ccccc1)c1c(N)n(Cc2ccccc2)c(=O)[nH]c1=O	18%[15.4 µM]	7.3	1	8%	8%	-3.6%	12
O=C(Cc1ccc(-n2c(=O)c3ccccc3n(Cc3ccc(F)cc3)c2=O)cc1)NCC1CCCO1 (configuration not stated)	?	3.6	4	3%	7%	-15%	1
Cc1cc(S(=O)(=O)NCc2ccccc2)ccc1OCC(=O)NCc1ccccn1	-1%[15.4 µM]	-1.0	0	13%	0%	-0.3%	11
O=C(/C=C/c1ccccc1)Nc1cc(S(=O)(=O)N2CCOCC2)ccc1N1CCOCC1	4%	/	1	/	-6%	0.2%	1
Cc1ccc(NC(=O)C(=O)NCc2ccc(/C=N/NC(=O)c3c(C)nc4ccccn34)o2)cc1	-1%[15.4 µM]	?	-6	-5%	-9%	-2.9%	8
COc1ccccc1C(=O)Nc1ccc(S(=O)(=O)N2CCOCC2)cc1	-58%[inhibitor]	-0.9	1	9%	-4%	0.1%	-16
COc1cc(Cl)ccc1OCc1cc(C(=O)N(C)Cc2cccc3cnccc23)no1	19%[15.4 µM]	/	-2	-5%	?	-4.5%	11
CC(C)[C@H](NC(=O)N1CCn2c1nc1ccccc12)C(=O)NC1CCCCC1	1%	-5.4	-12	2%	7%	-2.3%	-29
CCCCNC(=O)Cc1ccc(C)cc1	-48%	0.8	-10	-11%	7%	0.7%	-13
Cc1sc(NC(=O)c2cc(-c3ccc(Cl)cc3)nc3ccccc23)c(C(N)=O)c1C	6%	4.0	-1	?	-1%	2.2%	6
O=C(NCc1nnc2c(C(F)(F)F)cc(Cl)cn12)c1cccnc1	?	-3.0	/	7%	2%	-13%	-7
CN(C)/N=C/c1ccc(Sc2ccc([N+](=O)[O-])cc2[N+](=O)[O-])o1	-14%	0.0	-2	-8%	3%	1.6%	-5
O=C(c1cc2cc(Cl)ccc2[nH]1)N1CCN(C(=O)c2ccco2)CC1	-31%[inhibitor]	/	/	-9%	-12%	-8.6%	7
CCOCCCn1c(C)nc2c(c1=O)c1nc3ccccc3nc1n2CCC1=CCCCC1	?	3.6	3	?	-19%	?	-12
O=C(COc1ccc([N+](=O)[O-])cc1)NC(C(=O)O)C(O)c1cccc([N+](=O)[O-])c1 (configuration not stated)	6%[15.4 µM]	-2.0	10	8%	11%	/	3

Later entries.
smiles	gsp agonist	Menin MLL FP FL	CtBP-E1A inh	Sfp inh	gsp antagonist	ClpP mod	TRPV1 PAM
COCCCNC(=O)CC(NCCCOC)C(=O)O (configuration not stated)	1%[15.4 µM]	4.6	0	4%	-11%	-2.0%	2
O=C(CCC1CCCCC1)Nc1c2c(nn1-c1ccc(F)cc1)CS(=O)C2 (configuration not stated)	3%	3.7	-2	2%	3%	1.9%	-3
NC(=O)c1nsc(C(=O)N(CC(=O)NC2CCCC2)c2ccc(F)c(Cl)c2)c1N	-19%	0.4	11	-1%	5%	/	30
CCN(CC)S(=O)(=O)c1cccc(C(=O)NCC2CCCCC2)c1	17%[15.4 µM]	-0.2	4	18%	-29%	-4.9%	-12
COc1ccc(CNC(=O)C2(CC3CC(c4ccccc4)=NO3)CCNCC2)cc1 (configuration not stated)	1%	/	5	/	5%	2.0%	/
COc1ccc(C2=CC(=O)C[C@H](c3ccc(Cl)cc3)C2)cn1	/	/	3	/	-12%	-0.2%	4
O=C1c2ccccc2C(=O)N1Cc1nc(-c2ccccn2)no1	9%	3.6	-21	4%	7%	-1.0%	-3
COc1ccc(CN(Cc2ccc(C(=O)O)cc2)C(=S)Nc2ccc(C)cc2)cc1OC	21%	5.9	10	-21%	-11%	/	-2
CC(C)c1cccc(C(C)C)c1NC(=O)COc1nncc2ccccc12	10%[15.4 µM]	1.9	7	12%	10%	/	1
Cc1nc(OCc2ccccc2)c2sc3nc4c(cc3c2n1)COC(C)(C)C4	-70%[inhibitor]	-1.7	/	5%	11%	-14%	-7
CCN(CC)C(=O)C1=C(C)N(CCCOC)C(=O)C(CC(=O)NCCN2CCOCC2)C1 (configuration not stated)	-32%[inhibitor]	/	-1	/	/	-1.7%	/
O=C(CCCN1C(=O)/C(=C\c2ccco2)SC1=S)Nc1ccc(O)cc1C(=O)O	-2%[15.4 µM]	/	-28	50µM*	-23%	/	-9
O=C(CSc1nc2ccccc2n1Cc1ccccc1)N/N=C/c1ccccc1C(=O)O	5%	3.6	-1	14%	0%	-2.6%	10
CC(C)CNC(=O)/C=C/C=C/c1ccc2c(c1)OCO2	/	/	-4	/	-6%	-15%	/
Cn1c(=O)[nH]c(Nc2ccccc2)c([N+](=O)[O-])c1=O	-3%[15.4 µM]	2.2	6	15%	-24%	/	-1
COc1ccc(CNC(=O)Cn2cnc3c(OCc4ccccc4)ncnc32)cc1	/	/	-7	/	-7%	-1.3%	/
O=C(CNC(=O)c1ccc(Cl)cc1Cl)OCn1nnc2ccccc2c1=O	3%[15.4 µM]	/	0	/	9%	-0.5%	-1
COc1cccc(COC(=O)c2cc(S(=O)(=O)N3CCCCC3)ccc2N2CCOCC2)c1OC	-15%[15.4 µM]	/	-3	/	27%	/	9
CN(C)C(=O)c1ccc(OCC(F)(F)F)nc1	?	0.5	-5	18%	-1%	/	-7
Cc1cccc(C)c1NC(=O)CN1C(=O)S/C(=C\c2cccn2C)C1=O	2%	-0.7	-7	-9%	8%	-2.2%	-18

New compounds follow.
smiles	gsp agonist	Menin MLL FP FL	CtBP-E1A inh	Sfp inh	gsp antagonist	ClpP mod	TRPV1 PAM
Cc1cccc(-n2nc(C)c3c(C(=O)O)cc(-c4cccs4)nc32)c1	12%[15.4 µM]	0.0	11	3%	/	/	-16
O=C(c1cccs1)N1C[C@@H](n2cc(-c3ccc(F)cc3)nn2)[C@H](O)C[C@@H]1c1ccc(Cl)cc1	-86%[inhibitor]	/	5	/	/	1.1%	/
O=C(Nc1ccccc1-c1nc2ccccc2[nH]c1=O)c1cccs1	0%	4.6	-9	13%	-10%	/	4
c1ccc2nc(N3CCCC3)c(N3CCCC3)nc2c1	4%	-1.2	106	7%	-22%	-23%	8
CCCCC(=O)Nc1ccc(C(=O)Nc2ccc(S(=O)(=O)N3CCCC3)cc2)cc1	4%	-1.2	-3	-6%	9%	?	?
Cc1onc(-c2ccccc2)c1C(=O)NCc1cccc(Cl)c1	-9%[15.4 µM]	-0.9	3	21%	0%	/	7
Cc1ccc(NC(=O)CN(C)c2ccc(S(=O)(=O)N3CCN(C)CC3)cn2)cc1	4%	-0.2	2	2%	5%	-13%	-19
COc1cc(O)c2c(c1)COC2=O	8%	2.6	9	23%	-18%	?	-4
Cc1cc(C(C#N)c2cccc(Cl)c2)n2ncnc2n1 (configuration not stated)	-32%[inhibitor]	4.4	-9	11%	2%	29%	-5
COc1ccc(CN2CCn3ncc(C(=O)Nc4cc(C)cc(C)c4)c3C2=O)cc1	-33%[inhibitor]	3.1	2	-1%	-3%[15.4 µM]	?	-30
CCN1C(=O)CC(N2CCC(C(=O)N3CCCCCC3)CC2)C1=O (configuration not stated)	6%	-5.6	/	-4%	-7%	-1.6%	13
O=C(O)CSc1nnc(-c2cccc(S(=O)(=O)N3CCCCC3)c2)o1	0%[15.4 µM]	2.9	1	14%	/	/	-5
CN(CC(=O)NCc1ccc2c(c1)OCO2)S(=O)(=O)c1ccc(Cl)cc1	17%	/	/	/	-4%	-3.4%	/
O=C(NCCc1ccccc1)c1cc2ncc(Br)cn2n1	19%	4.6	0	1%	5%	0.4%	2
CCOc1ccccc1NC(=O)COC(=O)CC(NC(N)=O)c1ccc(Cl)cc1 (configuration not stated)	0%[15.4 µM]	3.3	0	15%	-9%	/	8
O=S(=O)(O)c1ccc(O)c2cc(Nc3ccccc3)ccc12	?	/	-29	/	4%	/	/
O=C(c1cc(Cl)nc2ccccc12)N1CCc2ccccc2C1	-2%	1.5	3	8%	-6%	-9.5%	4
Cc1cc(C)c(NC(=O)c2ccc(S(=O)(=O)N3CCOCC3)cc2)c(C)c1	-1%	3.2	3	7%	5%	0.5%	-12
C=CCSC1=N/C(=C\c2ccc3c(c2)OCO3)C(=O)S1	29%	-1.1	-8	-17%	-6%	?	-7
Cc1cccc(OCC(=O)NCc2cc(C)nc3ccccc23)c1	-31%[inhibitor]	3.5	1	-2%	-8%	-0.9%	0
O=C(NCc1ccccc1)c1nc2ccccc2s1	-1%[15.4 µM]	-1.2	13	5%	7%	-0.5%	1
CCC/C(C#Cc1ccsc1)=C1/c2ccccc2C(=O)N1c1ccccc1	/	/	-16	/	-3%	?	/
CC1CN(C(=O)Cn2c(=O)oc3ccccc32)CC(C)O1 (configuration not stated)	-2%[15.4 µM]	8.9	-12	11%	2%	/	1
